Screening data deposited in PubChem BioAssay by Broad Institute.
Vaccinia stage – Vaccinia orthopox stage-specific inhibition; Vaccinia-infected cells, mCherry/Venus stage reporter fluorescence; active compounds read low; some inactives read as strong as hits; activity change (mCherry), % (test concentration not listed); 89,000 compounds, 0.01% hits; AID 1053133;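 active = mCherry past -33% and 40 or more points under the early reporter, replicates agreeing; inconclusive = past -33% without that gap or agreement; tested in A549 cells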;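 note: scaled between vehicle wells and reference inhibitor wells; 23 nL library stock went into each well; one replicate is shown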
Vaccinia stage Venus – second read-out of Vaccinia stage, no call of its own (marks repeat the call); activity change (Venus), %; measured here: Venus reporter, other viral stage;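 negative = less Venus signal; first of two replicates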
* marks the source's active call; other numbers are inactive results; & = joins results of further samples. An excerpt; rates above refer to the full screens.

What do the screens show for `CCCNC(=O)N1CC2(C1)CN(C(=O)COC)[C@H](CO)c1[nH]c3cc(OC)ccc3c12`?
Vaccinia stage: 6; Vaccinia stage Venus: 1

How did CNC[C@H]1Oc2ccc(NC(=O)Nc3cccc4ccccc34)cc2CC(=O)N([C@H](C)CO)C[C@H]1C do in these assays?
Vaccinia stage: 23; Vaccinia stage Venus: 25

Results for Cc1noc(C)c1S(=O)(=O)N(C)C[C@@H]1OCCCC[C@@H](C)Oc2ccc(NC(=O)CCCN(C)C)cc2C(=O)N([C@@H](C)CO)C[C@H]1C ?
Vaccinia stage: 14; Vaccinia stage Venus: 1

Results for CCCC(=O)Nc1ccc2c(c1)OC[C@H](C)N(C(=O)c1ccncc1)C[C@H](C)[C@@H](OC)CN(C)C2=O ?
Vaccinia stage: 5; Vaccinia stage Venus: -2

What do the screens show for `C[C@H](O)C#Cc1ccc([C@H]2[C@@H](CO)N3CCCCN(CC4CC4)C[C@H]23)cc1`?
Vaccinia stage: 17; Vaccinia stage Venus: 2

How did COc1ccccc1S(=O)(=O)N(C)C[C@H]1Oc2cc(C#CCC3CCCC3)ccc2S(=O)(=O)N([C@@H](C)CO)C[C@H]1C do in these assays?
Vaccinia stage: inconclusive

What do the screens show for `Cc1noc(C)c1S(=O)(=O)Nc1ccc2c(c1)CC(=O)N([C@H](C)CO)C[C@@H](C)[C@H](CN(C)C(=O)Nc1ccc(C(F)(F)F)cc1)O2`?
Vaccinia stage: 3; Vaccinia stage Venus: 3

Results for Cc1noc(C)c1NC(=O)Nc1ccc2c(c1)C(=O)N([C@@H](C)CO)C[C@H](C)[C@@H](CN(C)C(=O)Nc1ccc3c(c1)OCO3)O2 ?
Vaccinia stage: 26; Vaccinia stage Venus: 18

What do the screens show for `CC(C)NC(=O)N(C)C[C@@H]1OCCCC[C@@H](C)Oc2ccc(NS(=O)(=O)c3ccc(Cl)cc3)cc2C(=O)N([C@H](C)CO)C[C@H]1C`?
Vaccinia stage: -12; Vaccinia stage Venus: -14

What do the screens show for `Cc1ccc(S(=O)(=O)N(C)C[C@@H]2OCCCC[C@@H](C)Oc3ccc(NC(=O)Nc4ccc(C(F)(F)F)cc4)cc3C(=O)N([C@H](C)CO)C[C@H]2C)cc1`?
Vaccinia stage: -25; Vaccinia stage Venus: -8

What do the screens show for `COc1ccc(S(=O)(=O)N(C)C[C@H]2OCCCC[C@H](C)Oc3ccc(NC(=O)c4ccccc4)cc3C(=O)N([C@H](C)CO)C[C@@H]2C)cc1`?
Vaccinia stage: -19; Vaccinia stage Venus: -8

How did CO[C@@H]1CN(C)C(=O)c2ccc(NC(=O)C3CCC3)cc2OC[C@@H](C)N(Cc2ccccn2)C[C@@H]1C do in these assays?
Vaccinia stage: 9; Vaccinia stage Venus: 8

Results for COc1cccc(-c2ccc([C@H]3[C@@H](CO)N4CCCCN(C(=O)c5ccc(F)cc5)C[C@@H]34)cc2)c1 ?
Vaccinia stage: inconclusive

Results for C[C@@H]1CN([C@@H](C)CO)C(=O)c2cc(NC(=O)NC3CCCCC3)ccc2O[C@@H](C)CCCCO[C@@H]1CN(C)C(=O)CCC(F)(F)F ?
Vaccinia stage: 1; Vaccinia stage Venus: 4

How did CO[C@@H]1CN(C)C(=O)c2ccc(NC(=O)Cc3ccccc3)cc2OC[C@@H](C)N(CC2CC2)C[C@H]1C do in these assays?
Vaccinia stage: 1; Vaccinia stage Venus: 8

The closing 3 records of the part above are carried over, then new ones follow.
Results for COc1cccc(-c2ccc([C@H]3[C@@H](CO)N4CCCCN(C(=O)c5ccc(F)cc5)C[C@@H]34)cc2)c1 ?
Vaccinia stage: inconclusive

Results for C[C@@H]1CN([C@@H](C)CO)C(=O)c2cc(NC(=O)NC3CCCCC3)ccc2O[C@@H](C)CCCCO[C@@H]1CN(C)C(=O)CCC(F)(F)F ?
Vaccinia stage: 1; Vaccinia stage Venus: 4

How did CO[C@@H]1CN(C)C(=O)c2ccc(NC(=O)Cc3ccccc3)cc2OC[C@@H](C)N(CC2CC2)C[C@H]1C do in these assays?
Vaccinia stage: 1; Vaccinia stage Venus: 8

What do the screens show for `Cc1ccc(S(=O)(=O)Nc2ccc3c(c2)C(=O)N([C@H](C)CO)C[C@H](C)[C@H](CN(C)S(=O)(=O)c2ccc(F)cc2)OCCCC[C@@H](C)O3)cc1`?
Vaccinia stage: 7; Vaccinia stage Venus: 3

How did N#Cc1cccc(-c2ccc3c(c2)[C@@H]2[C@@H](CCN2S(=O)(=O)c2ccccc2)[C@H](CO)N3)c1 do in these assays?
Vaccinia stage: -22; Vaccinia stage Venus: -10

How did C[C@@H]1CN([C@H](C)CO)C(=O)c2cc(NC(=O)Nc3ccc4c(c3)OCO4)ccc2O[C@@H](C)CCCCO[C@H]1CN(C)Cc1ccncc1 do in these assays?
Vaccinia stage: 7; Vaccinia stage Venus: -1

Results for COc1ccccc1C(=O)Nc1ccc2c(c1)C(=O)N(C)[C@@H]1CC[C@H](CC(=O)NCc3ccc(Cl)c(Cl)c3)O[C@@H]1CO2 ?
Vaccinia stage: inconclusive

What do the screens show for `CCC(=O)N(C)C[C@H]1Oc2ncc(-c3ccc(F)cc3)cc2C(=O)N([C@H](C)CO)C[C@H]1C`?
Vaccinia stage: -2; Vaccinia stage Venus: -2

What do the screens show for `O=C(Cc1ccncc1)NCC[C@H]1CC[C@H](NC(=O)C2CCOCC2)[C@@H](CO)O1`?
Vaccinia stage: 13; Vaccinia stage Venus: 10

Results for C[C@@H]1CN([C@@H](C)CO)C(=O)c2cc(NC(=O)Nc3ccc(C(F)(F)F)cc3)ccc2O[C@@H](C)CCCCO[C@@H]1CN(C)C(=O)NC1CCCCC1 ?
Vaccinia stage: 2; Vaccinia stage Venus: -6

How did CN1C(=O)c2cc(NC(=O)C3CCOCC3)ccc2OC[C@H]2O[C@H](CC(=O)NCC3CCCCC3)CC[C@@H]21 do in these assays?
Vaccinia stage: 12; Vaccinia stage Venus: 2

What do the screens show for `C[C@@H]1CN([C@H](C)CO)C(=O)c2cc(NC(=O)Nc3cccc4ccccc34)ccc2O[C@@H]1CN(C)C(=O)NC1CCCCC1`?
Vaccinia stage: 7; Vaccinia stage Venus: 5

How did O=C1CN(S(=O)(=O)c2ccccc2)C[C@H]2[C@@H](c3ccc(C#CCc4ccccc4)cc3)[C@H](CO)N12 do in these assays?
Vaccinia stage: 28; Vaccinia stage Venus: 9

What do the screens show for `C[C@H](CO)N1C[C@H](C)[C@H](CN(C)Cc2ccc3c(c2)OCO3)Oc2c(NC(=O)c3ccncc3)cccc2C1=O`?
Vaccinia stage: 14; Vaccinia stage Venus: 16

Results for Cc1noc(C)c1S(=O)(=O)Nc1ccc2c(c1)CC(=O)N([C@H](C)CO)C[C@H](C)[C@@H](CN(C)Cc1ccc(Cl)c(Cl)c1)O2 ?
Vaccinia stage: inconclusive

Results for C[C@H](CO)N1C[C@H](C)[C@H](CN(C)S(=O)(=O)c2cn(C)cn2)OCCCC[C@H](C)Oc2ccc(NS(=O)(=O)c3ccccc3)cc2C1=O ?
Vaccinia stage: 21; Vaccinia stage Venus: 15

What do the screens show for `C[C@H]1CN([C@@H](C)CO)C(=O)Cc2cc(NS(=O)(=O)c3ccccc3)ccc2O[C@@H]1CN(C)Cc1ccc2c(c1)OCO2`?
Vaccinia stage: -7; Vaccinia stage Venus: -1

How did CO[C@@H]1CN(C)C(=O)c2ccc(NS(C)(=O)=O)cc2OC[C@@H](C)N(C(=O)C2CCC2)C[C@H]1C do in these assays?
Vaccinia stage: 0; Vaccinia stage Venus: 9

Grouped by structure: the compounds so far with two or more sulfur atoms
How did COc1ccccc1S(=O)(=O)N(C)C[C@H]1Oc2cc(C#CCC3CCCC3)ccc2S(=O)(=O)N([C@@H](C)CO)C[C@H]1C do in these assays?
Vaccinia stage: inconclusive

What do the screens show for `Cc1ccc(S(=O)(=O)Nc2ccc3c(c2)C(=O)N([C@H](C)CO)C[C@H](C)[C@H](CN(C)S(=O)(=O)c2ccc(F)cc2)OCCCC[C@@H](C)O3)cc1`?
Vaccinia stage: 7; Vaccinia stage Venus: 3

Results for C[C@H](CO)N1C[C@H](C)[C@H](CN(C)S(=O)(=O)c2cn(C)cn2)OCCCC[C@H](C)Oc2ccc(NS(=O)(=O)c3ccccc3)cc2C1=O ?
Vaccinia stage: 21; Vaccinia stage Venus: 15

The results go on:
What do the screens show for `O=C(C[C@H]1C[C@@H]2c3cc(NC(=O)NC4CCCC4)ccc3O[C@@H]2[C@@H](CO)O1)NCc1ccc(Cl)cc1`?
Vaccinia stage: -3; Vaccinia stage Venus: -9

Results for COc1ccc(C#Cc2cnc3c(c2)C(=O)N([C@H](C)CO)C[C@H](C)[C@H](CN(C)S(=O)(=O)c2cccc(F)c2)O3)cc1OC ?
Vaccinia stage: inconclusive

What do the screens show for `Cc1noc(C)c1S(=O)(=O)Nc1ccc2c(c1)C(=O)N([C@H](C)CO)C[C@H](C)[C@H](CN(C)C(=O)NC1CCCCC1)O2`?
Vaccinia stage: 9; Vaccinia stage Venus: 5

Results for C[C@@H]1CN([C@@H](C)CO)S(=O)(=O)c2ccc(/C=C/c3ccccc3)cc2O[C@H]1CN(C)C(=O)Nc1cccc(F)c1 ?
Vaccinia stage: inconclusive

How did O=C(C[C@H]1CC[C@@H]2[C@H](COC[C@@H](O)CN2Cc2cccc(-c3ccncc3)c2)O1)N1CCCCC1 do in these assays?
Vaccinia stage: -12; Vaccinia stage Venus: -11

What do the screens show for `C[C@H]1CCCCO[C@@H](CN(C)C(=O)Nc2ccccc2)[C@@H](C)CN([C@@H](C)CO)C(=O)c2cc(NC(=O)c3ccccc3)ccc2O1`?
Vaccinia stage: -29; Vaccinia stage Venus: -25

What do the screens show for `C[C@@H]1CN([C@@H](C)CO)C(=O)c2cc(NC(=O)Nc3ccc(C(F)(F)F)cc3)ccc2O[C@H]1CN(C)C(=O)NC1CCCCC1`?
Vaccinia stage: 4; Vaccinia stage Venus: -1

What do the screens show for `C[C@H](CO)N1C[C@H](C)[C@H](CN(C)C(=O)Cc2ccccn2)Oc2cc(C#Cc3ccccc3)ccc2S1(=O)=O`?
Vaccinia stage: -32; Vaccinia stage Venus: -21

How did CC(C)CC#Cc1ccc2c(c1)O[C@H](CN(C)C(=O)C1CCCCC1)[C@H](C)CN([C@@H](C)CO)S2(=O)=O do in these assays?
Vaccinia stage: inconclusive

How did CO[C@@H]1CN(C)C(=O)c2ccc(NC(=O)C3CCCCC3)cc2OC[C@H](C)NC[C@@H]1C do in these assays?
Vaccinia stage: 8; Vaccinia stage Venus: 12

How did CCC(=O)N[C@@H]1CC[C@@H](CC(=O)NCC2CC2)O[C@H]1CO do in these assays?
Vaccinia stage: 11; Vaccinia stage Venus: 8

What do the screens show for `O=C(C[C@H]1CC[C@@H]2[C@H](COC[C@@H](O)CN2C(=O)Nc2ccc(C(F)(F)F)cc2)O1)NCC1CC1`?
Vaccinia stage: -22; Vaccinia stage Venus: -4

What do the screens show for `COc1ccc(S(=O)(=O)N[C@H]2CC[C@H](CC(=O)N3CCc4ccccc4C3)O[C@@H]2CO)cc1`?
Vaccinia stage: 19; Vaccinia stage Venus: 7

How did C[C@@H]1CN([C@@H](C)CO)C(=O)CCCn2nncc2CO[C@@H]1CN(C)S(=O)(=O)c1ccccc1F do in these assays?
Vaccinia stage: 8&8; Vaccinia stage Venus: 2&12

How did C[C@H]1CN([C@@H](C)CO)C(=O)CCCn2cc(nn2)CO[C@@H]1CN(C)S(=O)(=O)c1ccc(-n2cccn2)cc1 do in these assays?
Vaccinia stage: 9; Vaccinia stage Venus: 5

How did C[C@H](CO)N1C[C@H](C)[C@@H](CN(C)Cc2ccc(-c3ccccc3)cc2)Oc2c(NC(=O)Nc3ccc(F)cc3)cccc2C1=O do in these assays?
Vaccinia stage: -11; Vaccinia stage Venus: -9

How did C[C@H]1CN([C@@H](C)CO)C(=O)c2cc(-c3cccnc3)cnc2O[C@@H]1CN(C)C(=O)C1CCOCC1 do in these assays?
Vaccinia stage: 26; Vaccinia stage Venus: 4

How did O=C(O)C[C@H]1C[C@H]2c3cc(NC(=O)NC4CCCCC4)ccc3O[C@H]2[C@H](CO)O1 do in these assays?
Vaccinia stage: 7; Vaccinia stage Venus: 2

What do the screens show for `O=C(C[C@H]1C[C@@H]2c3cc(NC(=O)C4CCOCC4)ccc3O[C@@H]2[C@@H](CO)O1)NCCN1CCCCC1`?
Vaccinia stage: 14; Vaccinia stage Venus: 15

What do the screens show for `O=C(C[C@H]1C=C[C@@H](NC(=O)C2CC2)[C@H](CO)O1)NCC1CC1`?
Vaccinia stage: -1; Vaccinia stage Venus: -5

Results for CCS(=O)(=O)N1[C@H](CO)[C@H](c2ccc(C#Cc3ccccc3F)cc2)[C@@H]1C#N ?
Vaccinia stage: -11; Vaccinia stage Venus: -10

How did O=C(Cc1cccnc1)N1[C@@H]2CNc3ccccc3[C@@H]2[C@@H]1CO do in these assays?
Vaccinia stage: 13; Vaccinia stage Venus: 9

How did C[C@@H]1CN([C@@H](C)CO)C(=O)c2cc(-c3cccc(C#N)c3)cnc2O[C@H]1CN(C)C(=O)c1cnccn1 do in these assays?
Vaccinia stage: 16; Vaccinia stage Venus: 0

Results for C[C@@H]1CN([C@H](C)CO)S(=O)(=O)c2ccc(Br)cc2O[C@@H]1CN(C)Cc1cncnc1 ?
Vaccinia stage: 16; Vaccinia stage Venus: -7

How did CCCNC(=O)N1CC2(CN(C(=O)C3CCCC3)C2)c2c([nH]c3cc(OC)ccc23)[C@@H]1CO do in these assays?
Vaccinia stage: 13; Vaccinia stage Venus: 10

Results for N#C[C@H]1[C@H](c2ccccc2-c2ccc(F)cc2)[C@@H](CO)N1C(=O)NC1CCCC1 ?
Vaccinia stage: -30; Vaccinia stage Venus: -17

Results for Cc1noc(C)c1NC(=O)N(C)C[C@@H]1Oc2ccc(NS(=O)(=O)c3cn(C)cn3)cc2C(=O)N([C@@H](C)CO)C[C@H]1C ?
Vaccinia stage: 26; Vaccinia stage Venus: 24

What do the screens show for `COc1cccc(S(=O)(=O)N[C@@H]2CC[C@H](CC(=O)NCc3ccc(Cl)cc3)O[C@H]2CO)c1`?
Vaccinia stage: -4; Vaccinia stage Venus: -6
